# GLA inh pH 4.5: blocks human alpha-galactosidase A at pH 4.5; P06280; purified enzyme, 4-MU-alpha-Gal fluorescence, pH 4.5; activity change, negative = inhibition, % at 105 µM; 230,000 tested, under 10 active; AID 1467; inconclusive = small, poorly fitted or top-dose-only inhibition, or a rising curve; inactive = flat fitted curve, though single readings scatter; no compound was filed as active;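 further: 0% = full activity with enzyme and -100% = basal without enzyme; dose as in the result columns while the protocol names 77 µM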
# Rango release inh: inhibitors of RanGTP-induced Rango-importin beta complex dissociation; Biochemical FRET Rango-importin beta, RanGTP-induced dissociation; Potency, µM (top dose mostly 46.1 µM), inactives show at the top dose activity change, negative = inhibition; AID 540253; 340,000 tested, 0.071% active; active means falling FRET ratio curve, often poorly fitted, with flat reads before Ran was added; inconclusive means other falling curves, or compound fluorescence or quenching; inactive means flat or rising ratio curve;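 further: potency means the concentration at half of the fitted maximal effect; % of control where 0% means no effect; nearly all actives have a fitted effect of over 45% in size; -100% = wells without RanGTP and RCC1; the record marks most hits as doubtful in a second field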
#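 Two FRET readings bracket the reaction: one 5 min after compound meets Rango–importin beta, another 45 min after RanGTP-RCC1 (0.6 uM Ran, 0.2 uM RCC1, 2 mM GTP) is added. Only the second defines inhibition.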
# Rango complex inh: prevents formation of the Rango-importin beta complex; Q14974; Rango CFP/YFP FRET sensor + importin beta, 45 min; Potency, µM (top dose mostly 92.2 µM), for inactives: at the highest dose inhibition of complex formation; 340,000 tested, 0.031% active; active = rising FRET ratio curve, often small or poorly fitted; inconclusive = mostly compound fluorescence or quenching in the first reads; inactive = flat curves in all reads;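 further: potency means the concentration at half of the fitted maximal effect; 0% = DMSO wells and 100% = buffer wells lacking importin beta; nearly all actives have a fitted effect of over 15% in size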
# Target sequence (Q14974 whole entry, looked up): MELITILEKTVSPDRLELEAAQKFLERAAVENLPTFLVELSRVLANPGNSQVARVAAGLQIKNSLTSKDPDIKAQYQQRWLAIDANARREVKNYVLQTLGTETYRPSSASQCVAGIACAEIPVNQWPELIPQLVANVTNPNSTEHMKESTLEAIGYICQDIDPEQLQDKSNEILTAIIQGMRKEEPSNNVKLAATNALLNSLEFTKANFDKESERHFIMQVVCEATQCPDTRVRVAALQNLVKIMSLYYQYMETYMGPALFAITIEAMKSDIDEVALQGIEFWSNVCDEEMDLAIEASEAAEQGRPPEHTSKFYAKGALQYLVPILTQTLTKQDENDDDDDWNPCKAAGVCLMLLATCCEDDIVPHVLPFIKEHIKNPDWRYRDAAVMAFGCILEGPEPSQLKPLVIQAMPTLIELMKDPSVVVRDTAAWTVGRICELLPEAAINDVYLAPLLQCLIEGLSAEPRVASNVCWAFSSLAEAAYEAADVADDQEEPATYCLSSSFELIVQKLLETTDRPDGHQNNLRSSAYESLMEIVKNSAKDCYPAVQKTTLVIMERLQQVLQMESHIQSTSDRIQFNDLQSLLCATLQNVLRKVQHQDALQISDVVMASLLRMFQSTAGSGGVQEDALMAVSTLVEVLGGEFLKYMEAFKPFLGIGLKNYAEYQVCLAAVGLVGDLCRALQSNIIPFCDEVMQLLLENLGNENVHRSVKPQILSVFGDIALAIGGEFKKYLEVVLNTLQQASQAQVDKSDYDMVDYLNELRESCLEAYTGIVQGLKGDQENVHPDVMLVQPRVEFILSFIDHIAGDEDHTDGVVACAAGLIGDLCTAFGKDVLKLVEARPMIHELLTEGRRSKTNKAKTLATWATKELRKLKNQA
#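 FRET biosensor (snurportin 1 IBB flanked by EYFP and cerulean), 50 nM, with compound 5 min, then 0.125 microM importin beta in PBS, 1 mM DTT, 0.02% Tween-20, 0.1% BSA. CFP/YFP ratio read after 45 min at room temperature; pre-read flags interference.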
# miR-21 FLuc: raises the signal of a miR-21 reporter | Potency, µM (highest dose often 38.3 µM), inactives show at the top dose reporter change, positive = more light | HeLa miR-21 FLuc reporter, luciferase, 48 h | 340,000 tested, under 10 active; active = well fitted rising curve with a large enough effect; inconclusive = small, poorly fitted or top-dose-only effect; inactive = no such curve, though single readings can be large or run the other way;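 further: % of control where 0% means no effect; miR-21 action dims this reporter so a rising signal means less miR-21 action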
#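 Using DMEM plus 10% FBS, HeLa miR-21-FLuc cells are incubated with test compounds (final up to about 40uM) for 48 hours; firefly luciferase signal is then imaged following reagent-mediated lysis.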
# Starred values were filed as active, the others as inactive; u = inconclusive; x = not tested or not shown; & = joins results of further samples.
no.	molecule	Rango release inh	Rango complex inh	miR-21 FLuc	GLA inh pH 4.5
1	Cc1ccc(C(=O)N(CC(=O)Nc2ccc(Cl)c(Cl)c2)Cc2ccco2)cc1	5.2%	u	1.0%	2.4
2	CS(=O)(=O)N(CC(=O)N/N=C/c1cccc2c1OCCO2)c1ccccc1Br	1.2%	0.0%	-2.2%	-4.0
3	CCOc1ccc(N2CC(C(=O)N/N=C/c3sccc3C)CC2=O)cc1 (stereo not drawn)	5.8%	1.7%	-10.4%	-3.5
4	CCN1C(=O)[C@H]2[C@H]3CN=C(SCc4ccc(Cl)cc4)N3[C@@](CC)(C(=O)OC)[C@H]2C1=O	9.7%	0.6%	x	x
5	COc1ccc(Br)cc1S(=O)(=O)N1CCN=C1C	-11.8%	-0.4%	-6.4%	-4.9
6	CCCn1nnc(NC(=O)c2ccc(-c3cc(Cl)ccc3Cl)o2)n1	-13.5%	1.8%	-6.8%	-9.1
7	O=C(Cn1cc2c(n1)CCCC2)NC1CCN(Cc2ccccc2)CC1	0.0%	-4.7%	0.4%	5.5
8	O=S(=O)(c1ccc(NC(=S)NCCc2ccccc2)cc1)N1CCOCC1	23.5%	-2.2%	3.0%	4.1
9	COc1ccc(CNC(=O)[C@H](C)NC(=O)C2CCN(C(=O)[C@H](CCSC)NC(=O)OC(C)(C)C)CC2)cc1	0.5%	u	0.4%	x
10	CCCNC(=O)c1ccc(S(N)(=O)=O)cc1	8.1%	-0.8%	-0.9%	-1.2
11	CCCS(=O)(=O)N1CCC(C(=O)NCCc2ccc(C)cc2)CC1	-20.5%	2.4%	-8.3%	-3.2
12	O=C(Cc1ccc2c(c1)OCO2)NN=Cc1ccc([N+](=O)[O-])o1	-11.9%	2.1%	x	x
13	Cc1nnc(SCC(=O)NNC(=O)c2ccc(F)cc2)n1Cc1ccccc1	9.0%	-2.6%	x	x
14	CC(C)(C)Nc1nc(-c2ccc3c(c2)CCN3C(=O)C2CC2)cs1	-16.0%	0.1%	-81.5%	x
15	CCN(CC)C(=O)C1CCCN(c2ccccc2[N+](=O)[O-])C1 (stereo not drawn)	u	3.5%	-0.2%	-0.1
16	CSCCC(NC(=O)c1ccco1)C(=O)NNC(=O)c1n[nH]c(=O)c2ccccc12 (stereo not drawn)	-3.5%	-5.0%	x	x
17	COc1ccc(-c2c(C)c3cc(O)ccc3oc2=O)cc1	-14.1%	-2.7%	-54.3%	x
18	Nc1nc(-c2cccnc2)nc(N2CCCCC2)n1	-10.2%	7.2%	-3.4%	5.2
19	O=C(CNc1cccc(Cl)c1)c1ccc(Cl)cc1	3.1%	1.8%	-12.4%	-12.4
20	COc1cc2c(cc1OC)CN(C(=O)CCCOc1ccc(Cl)cc1Cl)CC2	-0.2%	1.4%	-4.3%	-12.6
21	Cc1cc(C(=O)N/N=C/c2ccc(-c3ccc(C)c(Cl)c3)o2)n[nH]1	-14.2%	-2.3%	-1.5%	13.0
22	COC(=O)C1=C(C(=O)OC)[C@@H]2N(C)c3ccccc3[C@@]23C[C@@H](C(=O)OC)N(C(=O)COCc2ccccc2)C3=N1	26.0%	0.1%	9.8%	0.4&5.5
23	COc1ccc(N(CC(=O)Nc2ccc(C)cc2C)S(=O)(=O)c2c(C)n[nH]c2C)cc1	12.2%	u	6.8%	x
24	Cc1cc(NC(=O)c2cccc(F)c2)ncc1NC(=O)c1ccco1	-1.6%	-0.5%	-37.0%	-0.6
25	COc1ccccc1NC(=O)C(=O)Nc1ccccn1	-1.2%	-0.8%	-47.7%	-0.9
26	CCn1c(SCC(=O)Nc2ccc(NC(C)=O)cc2)nnc1C1CC1	12.9%	-0.4%	4.7%	8.8
27	O=C(CNCc1ccc(Cl)cc1)NCc1ccco1	-1.9%	-7.6%	-11.6%	3.3
28	Nn1c(Cc2cccc3ccccc23)nnc1SCC(=O)N1CC(=O)Nc2ccccc21	-6.2%	-3.9%	-0.6%	4.1
29	CN(C)CCNc1ncnc2c1cnn2-c1ccc(Cl)cc1	u	0.3%	9.8%	-8.9
30	O=C(Nc1ccccc1O)c1ccccc1O	7.2%	7.4%	-11.0%	-4.7
31	COc1ccc(/C=N/NC(=O)c2cccnc2)cc1CN1CCc2ccccc2C1	-11.0%	6.4%	-0.2%	6.2
32	Cc1ccc(S(=O)(=O)N2CCOCC2)cc1C(=O)Nc1ccccc1N1CCCC1	-0.6%	-0.7%	x	x
33	CN1CCN(C(CNS(=O)(=O)c2ccc([N+](=O)[O-])cc2)c2ccc(F)cc2)CC1 (stereo not drawn)	-5.2%	2.3%	x	x
34	COc1cc(C(=O)Nc2cccc3ncccc23)cc(OC)c1OC	5.8%	0.0%	-2.8%	-9.3
35	COc1ccc([N+](=O)[O-])cc1NC(=O)c1ccc(Br)s1	-8.5%	2.0%	-5.1%	2.2
36	Cc1onc(-c2ccccc2Cl)c1C(=O)OCc1cnc(Cl)s1	9.7%	-1.8%	-0.2%	-6.2
37	CC(=O)NC(=S)Nc1ccccc1N1CCN(C(=O)c2ccccc2)CC1	0.3%	-2.7%	17.4%	5.6
38	Cc1ccc(C2Nc3cccc4cccc(c34)N2)cc1	-2.0%	-0.7%	-2.7%	x
39	Cc1ccc(NCc2nnc(SCC(=O)Nc3ccccc3)n2CC2CCCO2)c(C)c1 (stereo not drawn)	25.1%	u	-10.1%	0.6
40	Cc1cccn2cc(-c3ccc4c(c3)NC(=O)CO4)nc12	1.4%	4.5%	-50.3%	0.1
41	CCC(=O)Nc1nnc(SCc2ccc(F)cc2)s1	7.3%	4.6%	-19.2%	-6.2
42	O=C(OCC(=O)N(CCc1ccccc1)Cc1ccccc1)c1ccccc1O	-3.9%	1.0%	x	x
43	CN(C)CCNC(=O)c1cccc(S(=O)(=O)Nc2ccccc2F)c1	-0.9%	0.8%	-1.9%	0.4
44	CCCc1[nH]n(-c2ccc([N+](=O)[O-])cc2)c(=O)c1C=NCCc1ccc(OC)c(OC)c1	-12.4%	u	1.4%	0.1
45	O=C(NCc1ccco1)c1nc2c(nnn2Cc2cccc(Cl)c2)c(=O)[nH]1	10.7%	4.8%	-8.4%	4.6
46	O=C1CC(c2ccc3c(c2)OCO3)C2=C(CCCC2=O)N1 (stereo not drawn)	-0.5%	2.9%	-1.3%	2.4
47	O=C(Cc1n[nH]c(=O)c2ccccc12)NCc1ccccc1	-6.7%	3.4%	4.0%	-3.6
48	CCOC(=O)c1c(C)[nH]c(C)c1C(=O)CSc1nnc(-c2ccc(OC(F)F)cc2)o1	9.2%	-2.6%	8.4%	-13.8
49	O=C(c1cccc([N+](=O)[O-])c1)N1CCN(C/C=C/c2ccccc2)CC1	-0.1%	-0.3%	-1.7%	-5.2
50	CCN(c1cccc2ccccc12)S(=O)(=O)c1cccs1	-4.5%	-1.4%	x	x
51	Cc1cc(S(=O)(=O)NCCCn2ccnc2)c(C)cc1Cl	2.7%	-0.6%	3.2%	x
52	S=C(N/N=C/c1cccc2ccccc12)Nc1cccc(Cl)c1	-1.6%	1.5%	-0.3%	-8.6
53	CCOc1ccccc1CN1CCNC(=O)C1CC(=O)N(C)CCc1cnn(C)c1 (stereo not drawn)	-3.5%	-0.9%	-4.3%	x
54	C/C(=N\NC(=O)C1(C)CC1(Br)Br)c1cccc(NC(=O)C(C)(C)C)c1 (stereo not drawn)	4.9%	3.7%	0.0%	20.2
55	CCCOC(=O)c1c(NC(=O)/C=C/c2cnn(C)c2C)sc(C(=O)OCC)c1C	-13.8%	5.0%	-7.1%	-16.4
56	c1ccc(OCCCc2nc(-c3cccnc3)no2)cc1	7.9%	-1.6%	-13.5%	-0.2
57	CN(C)CCn1c(NC(=O)c2ccc(Cl)cc2)nc2ccccc21	-1.0%	u	-34.5%	-0.3
58	Cc1ccccc1NC(=O)Cc1nc(COC(=O)c2cc([N+](=O)[O-])ccc2NCCO)cs1	-9.0%	5.6%	x	x
59	OC[C@H]1OC(O)[C@H](O)[C@@H]1O (stereo partly drawn)	0.3%	u	x	x
60	COc1ccc(-n2c(SCC(=O)N/N=C(\C)c3cccnc3)nc3ccccc3c2=O)cc1	9.7%	1.9%	-3.9%	5.5

# Reprinted from the part before: two compounds; new compounds follow.
no.	molecule	Rango release inh	Rango complex inh	miR-21 FLuc	GLA inh pH 4.5
59	OC[C@H]1OC(O)[C@H](O)[C@@H]1O (stereo partly drawn)	0.3%	u	x	x
60	COc1ccc(-n2c(SCC(=O)N/N=C(\C)c3cccnc3)nc3ccccc3c2=O)cc1	9.7%	1.9%	-3.9%	5.5
61	Cc1ccccc1Nc1nc(-c2sc(NC(=O)c3cccc(Cl)c3)nc2C)cs1	x	x	-21.8%	-1.5
62	O=c1[nH]c(N2CCCCC2)nc2ncn(Cc3ccccc3)c12	-3.2%	-1.3%	-6.6%	-0.4
63	CCC(C)c1ccc(NC(=O)C2CCCN(c3ncccn3)C2)cc1 (stereo not drawn)	0.3%	-4.6%	-4.3%	4.0
64	COc1ccc(CCNC(=O)[C@H](CCSC)NC(=O)N2CCn3c2nc2ccccc23)cc1OC	-22.4%	0.0%	-1.1%	x
65	CCn1c2ccccc2c2cc(NC(=O)CSc3nnc(-c4cccc(Cl)c4)o3)ccc21	14.4%	-0.9%	9.1%	-5.6
66	CCOC(=O)N1CCC(NC(=O)C2CCN(C(=O)c3cc4sccc4n3CC)CC2)CC1	2.6%	-1.2%	10.7%	-1.8
67	CCOP(=O)(OCC)c1ccc2ccc3ccccc3c(=O)c2c1	6.0%	0.1%	x	x
68	COc1ccc(CSc2n[nH]c(C)n2)cc1[N+](=O)[O-]	-10.3%	-2.0%	-22.4%	3.1
69	CCc1ccccc1N(CC(=O)NCCc1ccccc1)C(=O)CCC(=O)Nc1ccccn1	37.4%	3.7%	13.5%	x
70	O=C(NCCN1CCCC1)c1ccc(Cl)cc1Cl	3.8%	2.4%	-4.9%	x
71	O=C(NC1CCS(=O)(=O)C1)c1ccc(S(=O)(=O)N2CCCCC2)cc1 (stereo not drawn)	u	1.9%	0.5%	-23.3
72	O=C(Oc1cccc(F)c1)c1ccc2c(=O)n3c(nc2c1)CCC3	-9.7%	-0.4%	x	x
73	COc1ccc(NS(=O)(=O)c2ccc3c(c2)N(C(C)=O)CCO3)c(OC)c1	9.4%	0.9%	-0.5%	x
74	Cc1nn(C)c(Oc2ccc(Cl)cc2)c1C(=O)Nc1ccc(F)cc1F	27.0%	7.0%	4.3%	1.0
75	CC1CCCC(NC(=O)COC(=O)CCSc2ccccc2)C1C (stereo not drawn)	4.1%	0.1%	-5.0%	3.9
76	CCc1nnc(NC(=O)c2cc(S(=O)(=O)N(C)c3ccc(OC)cc3)ccc2Cl)s1	-6.1%	0.8%	4.7%	x
77	CCOc1c2ccc(C(=O)N[C@H](C)C3CCCCC3)cc2nn1CCOC	2.6%	0.3%	-5.6%	1.0
78	CCCCN(CCCNC(=O)C1CCN(S(=O)(=O)N2CCOCC2)CC1)Cc1ccccc1	1.6%	0.7%	-3.4%	-7.9
79	Cc1noc(C)c1C(=O)Nc1ccc(F)c(F)c1	1.6%	1.2%	-1.1%	0.0
80	O=C1CN(C(=O)/C=C/c2ccco2)c2ccccc2N1	5.4%	-2.6%	-14.2%	3.6
81	CC(NC(=O)CN(C)CC(=O)Nc1cccc(F)c1)c1ccccc1 (stereo not drawn)	-10.8%	-3.3%	x	x
82	COc1ccc(/C=C(\NC(=O)c2ccc(C)cc2)C(=O)NCCN2CCOCC2)cc1	-10.3%	3.6%	-0.5%	x
83	COC(=O)c1[nH]c2c(c1C)C(=O)CC(c1ccc(OC)cc1)C2 (stereo not drawn)	-2.0%	1.7%	-14.1%	x
84	CCc1nnc(NC(=O)CSc2nc(C)nc3c2c(=O)n(C)c(=O)n3C)s1	-5.8%	5.0%	-1.3%	x
85	COc1cc(NC(=S)NC(=O)c2cc(C)cc(C)c2)ccc1NC(=O)c1cccs1	-9.7%	3.7%	-7.1%	-3.5
86	CC(CN1CCCCC1)OC(=O)Cc1ccc(Cl)cc1 (stereo not drawn)	-2.7%	-0.1%	0.1%	5.8

# A portion of the library, so the mix of outcomes need not match the whole.
